From PubChem
total CFTR: compounds raising F508del-CFTR protein level – cell-based, HeLa F508del-CFTR, immunofluorescence, viability, primary screen (AID 1224863); HeLa F508del-CFTR, immunofluorescence total CFTR, 24 h; by the record results were divided by relative cell number; some inactives read as strong as hits; calls, or highest fold increase where a dose series was run; 0.1% of 10,000 active; in the data nearly all actives have a first-pass fold increase above 1.5; a few of its hits are not listed in these tables;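 also: total CFTR protein by anti-CFTR immunofluorescence in fixed cells; first pass at 25 µM or 10 µg/mL by library and series up to twice that; 1 = untreated cells; first-pass hits also needed half or more of the cells alive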
total CFTR fold 25 µM: recorded beside total CFTR, whose call it bears; fold increase; measured here: primary screen single dose 25 uM; library dosed in µM
total CFTR fold 10 ug/mL: also measured in total CFTR; calls as there; fold increase; measured here: primary screen 10 ug/mL
total CFTR viability 25 µM: also measured in total CFTR; calls as there; viability, %; measured here: primary viability 25 uM; library dosed in µM;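 0% = killed and 100% = untreated cells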
total CFTR viability 10 ug/mL: further read-out of total CFTR, marked with its call; viability, %; measured here: primary viability 10 ug/mL;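 0% = killed and 100% = untreated cells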
Active calls of the source: *; i = inactive; nt = no result given; & = joins results of further samples. This is a subset; the hit share may differ from the screen's.

SMILES	total CFTR	total CFTR fold 10 ug/mL	total CFTR viability 10 ug/mL	others
Cn1cnnc1-c1ccc(NS(=O)(=O)c2ccc3c(c2)OCCO3)cc1	i	1.1	86
O=S(=O)(c1cccc(Cl)c1F)N1CCC2(CC1)OCCO2	i	1	90
O=C(Cc1cccs1)NCc1ccc(Cl)s1	i	1	92
O=C1C(=O)N(Cc2cccc3ccccc23)C(=O)N1CCC1=CCCCC1	i	1.1	102
Cc1ccccc1-n1nnnc1Sc1ccc2nnc(C(F)(F)F)n2n1	i	0.84	77
CCCN(C(=O)c1cc(S(=O)(=O)N2CCCC2)cn1C)C1CCS(=O)(=O)C1 (centres undefined)	i	1	99
CC1Sc2ccc(C(=O)N3CCc4ccc([N+](=O)[O-])cc43)cc2NC1=O (centres undefined)	i	0.71	63
C=C1/C(=C\C=C2/CCC[C@]3(C)[C@@H]([C@H](C)/C=C/[C@@H](O)C4CC4)CC[C@@H]23)C[C@@H](O)C[C@@H]1O	i	nt	nt	total CFTR fold 25 µM=0.86;total CFTR viability 25 µM=86
O=S(=O)(NCC1(c2ccccc2)CC1)N1CCCCCC1	i	1	86
CCn1nnnc1SCC(=O)N1CC(=O)NC(=O)C12CCCCC2	i	1	98
Cn1c(=O)c2c(ncn2Cc2coc(-c3ccccc3)n2)n(C)c1=O	i	1	95
CCC[C@@H]1C[C@@H](C(=O)N[C@H](C(C)Cl)[C@H]2O[C@H](SC)[C@H](O)[C@@H](O)[C@H]2O)N(C)C1 (some centres undefined)	i	nt	nt	total CFTR fold 25 µM=1;total CFTR viability 25 µM=91
Cc1cc(C(C)NC(=O)C2CCC2)c(C)s1 (centres undefined)	i	0.95	101
O=C(NC1CCOc2ccccc21)C12CC3CC(CC(O)(C3)C1)C2 (centres undefined)	i	1.1	95
CCc1ccc(CNC(=O)C(NC(C)=O)C(C)C)s1 (centres undefined)	i	1	102
O=C(C(=O)N1CCNCC1)N1CCCC1	i	1.1	104
O=S(=O)(c1ccccc1N1CCC2(CC1)OCCO2)C(F)(F)F	i	0.92	80
c1cc(NC2CCCCCC2)c2cccnc2c1	i	0.9	71
CCN1CC(CN(C)CN2C(=O)NC3(CCCCC3)C2=O)Oc2ccccc21 (centres undefined)	i	1	98
O=c1n(CCSc2nnc(-c3cccc(Br)c3)o2)nc2ccccn12	i	1.1	95
CC(C)NC(=O)CN(C)Cn1nc(C(F)(F)F)n(C)c1=S	i	0.98	95
O=C1CCc2c(F)cccc21	i	0.99	84
O=C(CSc1nc2cc(Cl)ccc2c(=O)n1C1CCCC1)c1ccc(O)cc1O	i	0.8	115
CC(NC(=O)NCc1cccnc1OC1CCCC1)C1CCCO1 (centres undefined)	i	0.95	99
O=C(Nc1ccc2c(c1)CCC2)C1CC2CCCC(C1)C2=O (centres undefined)	i	0.99	103
CCOc1cc(Br)c(COC(=O)c2c(C)cc(=O)oc2C)cc1OCC	i	1.1	85
CC1CCCCN1Cn1nc2ccccn2c1=S (centres undefined)	i	0.99	102
CC(=O)[C@H]1CC[C@H]2[C@@H]3CCC4=CC(=O)CC[C@]4(C)[C@H]3CC[C@]12C	i	nt	nt	total CFTR fold 25 µM=0.87&0.81;total CFTR viability 25 µM=82&92
CN(C)C1(CNC(=O)C23CC4CC(CC(C4)C2)C3)CCCC1	i	1.1	105
S=c1n(CN2CCN(c3ccccc3)CC2)nc(-c2ccco2)n1-c1ccccc1	i	1.2	114
CCN1C(=O)c2ccccc2N2C(=O)CCC12C(=O)NC(C)c1ccc(F)cc1 (centres undefined)	i	0.96	97
CS(=O)(=O)N1CCC(NC(=O)CC2C=CCC2)CC1 (centres undefined)	i	0.94	94
Cc1cc(C2Nc3ccccc3C(=O)N2Cc2ccco2)c(C)n1C(C)C (centres undefined)	i	1.1	111
O=C1CN(CC(O)COc2ccccc2)CCN1 (centres undefined)	i	0.92	108
CC(=O)c1c(C)[nH]c(C(=O)COC(=O)c2cc3c(s2)CCC3)c1C	i	1	89
CC(C#N)Sc1nnc(-c2ccc(F)cc2)o1 (centres undefined)	i	1	110
CC1CC(C)CN(c2ncnc3c2oc2ccccc23)C1 (centres undefined)	i	0.92	92
O=C(NC1CCCC1)c1cc2c(nc3sccn32)s1	i	1.1	87
COc1ccc(-c2cc3c(nn2)Nc2c4ccccc4nc(=O)n2N3)cc1	i	1.2	102
O=C1NC2(CCc3ccccc32)C(=O)N1Cc1cc(=O)oc2cc3c(cc12)CCC3 (centres undefined)	i	0.98	91
CCC(CC)NC(=O)CN1C(=O)C2CCCCC2C1=O (centres undefined)	i	1	96
COc1ccccc1COc1ccc(-c2nnco2)cc1	i	0.93	92
CC1(C)C(=O)Nc2ccccc2N1C(=O)COC(=O)C1=NN(c2ccccc2)C(=O)CC1	i	1.1	100
O=C(O)[C@H]1/C(=C/CO)O[C@@H]2CC(=O)N21	i	nt	nt	total CFTR fold 25 µM=1.2;total CFTR viability 25 µM=96
O=C1CCc2cc(S(=O)(=O)NC3CCSc4ccc(Cl)cc43)ccc2N1 (centres undefined)	i	0.91	98
CN(C)c1nc(N)nc(Cn2nnn(-c3ccccc3)c2=O)n1	i	1	88
O=C(OCc1cc(-c2ccco2)on1)c1ccc(C(F)(F)F)nc1	i	1	101
CC(NC(=O)COC(=O)c1ncc(Cl)c(Cl)c1Cl)C12CC3CC(CC(C3)C1)C2 (centres undefined)	i	1.1	90
CC(Sc1nnc(-c2ccc3c(c2)OCO3)o1)C(=O)C12CC3CC(CC(C3)C1)C2 (centres undefined)	i	1.1	103
CN(C(=O)Nc1ccc(Br)cc1)C1CCCCC1	i	0.88	84
CCCC(C)NC(=O)Nc1ccc2c(c1)CCC2 (centres undefined)	i	0.92	84
O=C(c1ccc(N2CCCC2=O)cc1)c1cc2ccccc2o1	i	0.94	94
COc1ccc(-n2ccn(CN3CCN(S(=O)(=O)c4ccc(OC)cc4)CC3)c2=S)cc1	i	1	94
Nc1cccc2cccnc12	i	1.1	101
O=C1c2ccccc2NC(c2ccccc2N2CCCC2)N1C1CC1 (centres undefined)	i	0.95	86
CC(C)CSCCC(=O)Nc1ncn[nH]1	i	1	93
CCCCC1C(=O)N(c2ccccc2)N(c2ccc(O)cc2)C1=O (centres undefined)	2.6	nt	nt	total CFTR fold 25 µM=1.9;total CFTR viability 25 µM=84
N#CCCSc1nc2sc3c(c2c(=O)n1Cc1ccco1)CCC3	i	1.1	107
O=S1(=O)CCC(N2CCN(Cn3nc(-c4cccs4)n(-c4ccccc4)c3=S)CC2)C1 (centres undefined)	i	1.1	100
Cc1cc2nc3ccc(=[N+](C)C)cc-3sc2cc1N	i	nt	nt	total CFTR fold 25 µM=0.89;total CFTR viability 25 µM=72
Carrying on:
SMILES	total CFTR	total CFTR fold 10 ug/mL	total CFTR viability 10 ug/mL	others
Cc1ccc(CCC2CCN(CN3C(=O)NC(C)(C4CC4)C3=O)CC2)cc1 (centres undefined)	i	1.1	96
COc1ccc(CN(C2CC2)S(=O)(=O)c2ccc(S(=O)(=O)N3CCOCC3)cc2)cc1	i	1.2	90
CC1(c2ccc(F)c(F)c2)NC(=O)N(CN2CCCC2c2ccccc2)C1=O (centres undefined)	i	1.1	102
O=C(Nc1ccccc1)OCC(CN1CCCCC1)OC(=O)Nc1ccccc1 (centres undefined)	i	nt	nt	total CFTR fold 25 µM=1.1;total CFTR viability 25 µM=101
COc1ccc(-n2cnn(CN3CCN(c4ccc([N+](=O)[O-])cc4)CC3)c2=S)cc1	i	0.91	106
COC(=O)c1c(C)nsc1NC(=O)N1CCN(S(=O)(=O)c2ccc(C(N)=O)o2)CC1	i	0.96	85
COCCSc1n[nH]c(/C=C/c2ccc(C)o2)n1	i	1.4	90
CC1CN(c2ncnc3c(Br)cccc23)CC(C)O1 (centres undefined)	i	0.92	94
N#Cc1cn(C2CC2)c(=O)n(CCS(=O)(=O)c2ccc(Br)cc2)c1=O	i	0.93	100
CCOCCSc1nnc(-c2ccccc2)n1C	i	1	106
CN(C)S(=O)(=O)c1ccc(S(=O)(=O)NCCSC2CCCC2)c([N+](=O)[O-])c1	i	0.84	88
CC1CN(S(=O)(=O)N2CCN(C(=O)CC3CC4CCC3C4)CC2)CC(C)O1 (centres undefined)	i	1.1	94
CCN(CC)S(=O)(=O)N1CCC(NS(=O)(=O)c2ccccc2)CC1	i	1	97
CCC(CC)NS(=O)(=O)c1ccsc1C(=O)OC	i	1	97
O=C(Nc1ccc2c(c1)OCO2)C1=Cc2ccccc2OC1	i	0.96	69
O=S(CCSc1n[nH]c(C2CCCC2)n1)c1ccccc1 (centres undefined)	i	0.93	97
CON(C)C(=O)c1cc(Br)ccc1O	i	0.99	90
CC1CCc2[nH]c3ccc(C(=O)OC4CCOC4=O)cc3c2C1 (centres undefined)	i	1.1	83
CC(Nc1ccc(S(=O)(=O)NC(C)(C)C)cc1[N+](=O)[O-])c1ccc2c(c1)OCO2 (centres undefined)	i	1.1	87
CCN1CCN(C(=O)N[C@@H](C(=O)N[C@@H]2C(=O)N3C(C(=O)O)=C(CSc4nnnn4C)CS[C@H]23)c2ccc(O)cc2)C(=O)C1=O	i	nt	nt	total CFTR fold 25 µM=1.1;total CFTR viability 25 µM=110
CC1=NNc2nc3c(c(=O)n(C)c(=O)n3C)n2C1C (centres undefined)	i	1.1	103
CC1CCCN(S(=O)(=O)N2CCN(Cc3ccccc3)CC2)C1 (centres undefined)	i	1	96
CCOC(=O)N1CCC(NS(=O)(=O)c2ccc(S(=O)(=O)C(F)F)cc2)CC1	i	0.92	84
Cc1noc(C)c1S(=O)(=O)N(Cc1ccco1)Cc1cccs1	i	0.98	89
CC(=O)NC12CC3CC(C1)CC(C(=O)NCCSCc1cccs1)(C3)C2	i	1	99
CN(C)CCN1C(=O)c2ccccc2N(C)c2ccccc21	i	nt	nt	total CFTR fold 25 µM=0.99;total CFTR viability 25 µM=101
CCCc1ccc(C(NS(=O)(=O)c2ccc(S(C)(=O)=O)cc2)C(C)C)cc1 (centres undefined)	i	1	96
CCOC(=O)C1=C(CN2CCCC2Cc2ccccc2)NC(=O)NC1C (centres undefined)	i	1.1	99
CCCCC(=O)N(Cc1ccc(-c2ccccc2-c2nn[nH]n2)cc1)[C@H](C(=O)O)C(C)C	i	nt	nt	total CFTR fold 25 µM=1.2&1;total CFTR viability 25 µM=91&86
Clc1ccc(Nc2nnc(Cc3ccncc3)c3ccccc23)cc1	i	nt	nt	total CFTR fold 25 µM=0.79;total CFTR viability 25 µM=67
O=C(COc1ccc(Cl)cc1Cl)N1CCc2cc(F)c(F)cc21	i	1.1	109
O=C(CSc1nnc(C2CC2)n1C1CC1)NC(=O)NCc1ccco1	i	1	88
Cc1nc(-c2ccsc2)sc1C(=O)NC1CC1	i	0.99	93
Cc1cnc2c(S(=O)(=O)N3CCn4c3nc3ccccc34)cccc2c1	i	0.99	82
CCCCNC(=O)c1cc2c(nc3sccn32)s1	i	1.1	86
NC(=O)c1ccsc1NC(=O)CCN1CCN(c2nccs2)CC1	i	0.96	103
O=c1oc2ccc([N+](=O)[O-])cc2n1Cc1cc(Cl)c2c(c1)OCCCO2	i	0.85	94
CN(C)C(=O)C(CCN1CCC(O)(c2ccc(Cl)cc2)CC1)(c1ccccc1)c1ccccc1	i	nt	nt	total CFTR fold 25 µM=1.1&0.95&0.96;total CFTR viability 25 µM=81&90&74
NCc1ccc2ccccc2c1	i	1.1	94
O=C(Nc1nccs1)C1COCCO1 (centres undefined)	i	1	94
CCC(=O)OCC(=O)C1(OC(=O)CC)C(C)CC2C3CCC4=CC(=O)C=CC4(C)C3(Cl)C(O)CC21C (centres undefined)	i	nt	nt	total CFTR fold 25 µM=0.93;total CFTR viability 25 µM=77
